# HPGD inh: inhibitors of human 15-hydroxyprostaglandin dehydrogenase (HPGD) | P15428 | purified HPGD, NADH fluorescence kinetic, PGE2 substrate | Potency, µM, inactives show at the top dose activity change, negative = inhibition, actives largely listed as inhibitors | hit rate 4.3% among 150,000 | AID 894; active = well fitted inhibition curve with a large enough effect (not every such curve was filed as active); inconclusive = small, poorly fitted or top-dose-only effect, or another doubt; inactive = no such curve, though single readings can be large or run the other way;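 note: top concentration of the series not given in the record; plate controls included wells without enzyme; inactives centre near -10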
# Target sequence (P15428 whole entry, looked up): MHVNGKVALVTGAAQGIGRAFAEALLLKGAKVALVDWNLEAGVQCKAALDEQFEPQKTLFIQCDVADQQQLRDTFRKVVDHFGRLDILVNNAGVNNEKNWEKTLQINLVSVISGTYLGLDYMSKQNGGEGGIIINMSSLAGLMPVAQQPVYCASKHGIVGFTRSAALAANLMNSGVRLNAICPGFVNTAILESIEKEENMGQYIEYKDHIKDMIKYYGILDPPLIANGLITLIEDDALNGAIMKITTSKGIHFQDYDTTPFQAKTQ
#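 NADH formation kinetics: reaction with 30 uM PGE2 and 1 mM NAD+ (final), 20 nM enzyme, Tris-HCl pH 8 with Tween 20, after 15 min compound preincubation at room temperature. Fluorescence change, last versus first of five reads.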
# Numbers without * were called inactive; ? = inconclusive; & = joins results of further samples; [ ] = dose if it differs, or a comment. % is set by controls: 0 for no effect and ±100 for the full control effect; potency is the fitted concentration of half-maximal effect.
SMILES,HPGD inh
CCOC(=O)C1=C(CSc2nc(CC)c(C)cc2C#N)OC(N)=C(C#N)C1c1ccc(OC)cc1 (configuration not stated),?
COC(=O)NNC(=O)C(C)Oc1ccc(Cl)cc1Cl (configuration not stated),-9.6%
CCN(CC)S(=O)(=O)c1ccc2nc(CSc3nnnn3-c3ccc(O)cc3)[nH]c2c1,-22.8%
Cc1ccc2c(c1)CCCN2C(=O)c1ccncc1,-6.5%
Fc1ccc(CN2CCN(c3ncccn3)CC2)cc1,6.1%
Cc1noc(C)c1C(=O)Nc1ccccc1-c1ccccc1,-3.9%
CCN(CC)S(=O)(=O)c1cccc(C(=O)N2CC(O)CC2C(=O)OC)c1 (configuration not stated),0.3%
O=C(CSc1nnc(-c2cccs2)n1-c1ccccc1)NCc1ccc2c(c1)OCO2,-0.8%
Nc1nc(-c2ccccc2)[nH]c(=O)c1N,?
CCOc1ccc(Cl)cc1S(=O)(=O)N1CCN(c2ccc(F)cc2)CC1,-23.6%
COC(=O)[C@@H]1C[C@H]1[C@@H](NC(=O)c1ccc(Br)cc1)c1ccccc1,-2.0%
O=C(Cn1nnc2ccccc21)OCC(=O)c1ccccc1,-14.1%
Cc1cc(SCCOc2ccc(Br)cc2)nc(N)n1,-26.7%
Cc1ccc(/C=N/NC(=O)Cn2nccc2C)o1,-18.2%
CCCOc1ccc(/C=C/C(=O)NCc2ccccc2)cc1,-10.8%
CC/C(Cc1ccccc1)=N\NC(=O)c1cc(C)oc1C,-6.2%
CN(C)CCN1C(=O)C(=O)/C(=C(/O)c2ccc(F)cc2)C1c1ccccc1 (configuration not stated),-9.7%
O=S(=O)(/C(=C/c1ccc(C(F)(F)F)cc1)c1nc2ccccc2[nH]1)c1ccccc1,-27.1%
O=C(O)c1cc([N+](=O)[O-])ccc1NCCCc1ccccc1,-12.3%&-14.5%&-27.3%
CC(C)COP(=O)(c1ccc(N(C)C)cc1)C(O)c1ccccn1 (configuration not stated),-6.0%
Cc1ccc(OC(C)C(=O)Nc2ccc(C)c(S(=O)(=O)Nc3ccc(C)cc3C)c2)cc1 (configuration not stated),-19.8%
Nc1nc2n(n1)C(c1ccccc1)CC(c1ccc(F)cc1)N2 (configuration not stated),1.2%
COc1ccc(-c2nnc(SCC(=O)Nc3cc(C)on3)n2N)cc1OC,-9.2%
Cc1cccc(NS(=O)(=O)c2ccc(C)c(C(=O)OCC(=O)Nc3cc(C)on3)c2)c1,-16.5%
COc1ccc(/C(N)=N/OC(=O)Cc2ccccc2)cc1,-14.2%

# Part of the list above, with the structure last:
HPGD inh | SMILES
-10.8% | CCCOc1ccc(/C=C/C(=O)NCc2ccccc2)cc1
-6.2% | CC/C(Cc1ccccc1)=N\NC(=O)c1cc(C)oc1C
-9.7% | CN(C)CCN1C(=O)C(=O)/C(=C(/O)c2ccc(F)cc2)C1c1ccccc1 (configuration not stated)

# The results go on.
SMILES,HPGD inh
O=C(COc1ccccc1)Nc1ccc2c(c1)nc1n2CCOC1,-22.6%
CN=c1scc(C)n1/N=C/c1ccc(O)c(O)c1O,7.08µM*
O=C(/C=C/c1ccc(F)cc1)c1ccccc1Br,-21.7%
O=C(O)c1ccc(C(=O)c2ccccc2C(=O)O)cc1C(=O)O,-9.1%
CCOC(=O)c1cnc(SCC(=O)Nc2nc(C)c(C)s2)nc1N,-13.9%
N#CC1(C#N)[C@@H](C(=O)C23CC4CC(CC(C4)C2)C3)C12CCOCC2,-4.9%
CCn1cc(C2C(C(=O)Nc3cc(C)ccn3)=C(C)NC3=C2C(=O)CC(C)(C)C3)c(C)n1 (configuration not stated),?
Cc1c(-c2c(C#N)c(N)nc3c2CCCCCC3)cnn1C,?
CCOC(=O)c1c(-c2ccc(C)o2)csc1NC(=S)NC(=O)N(C)C,-15.6%
O=C(O)c1ccc(/C=N/NC(=O)c2cc(-c3cccs3)nc3ccccc23)cc1,?
COC(=O)/C=C1\S/C(=N/NC(=O)c2ccccc2)NC1=O,-27.1%
CCCOc1ccc(N2C(=O)CC(NCc3ccncc3)C2=O)cc1 (configuration not stated),-7.1%
CCNc1nc(CN2CCOCC2)nc2sc3c(c12)CCC3,-16.1%
CCOC(=O)Cn1c(=O)oc2cc(S(=O)(=O)NCc3cccs3)ccc21,-15.7%
COCCNc1nc(C)nc2c1nc(-c1ccccc1)n2CCN1CCCC1,?
CCC(CC)c1nc2cc(OC)c(OC)cc2c(=O)o1,-17.1%
CC(NC(=O)Cn1nnc(-c2ccncc2)n1)c1ccccc1 (configuration not stated),-15.8%
COc1ccc(C(CNC(=O)c2ccccc2C)N2CCCC2)cc1 (configuration not stated),-21.0%
O=C(NCc1ccccc1)c1cccc(OCC(=O)N2CCN(C(=O)c3ccco3)CC2)c1,-3.8%
CC(C)(C)c1n[nH]c(=S)n(N)c1=O,-13.8%
COc1ccc2c(CC(=O)N3CCN(S(=O)(=O)c4cccs4)CC3)coc2c1,-5.4%
CC(CCc1ccccc1)NC(=O)c1cccs1 (configuration not stated),?
Cn1ncc2c(Nc3cccc(Cl)c3)nc(Nc3cccc(Cl)c3)nc21,?
Cc1cc(C)c(NC(=O)/C=C\C(=O)O)c(Cl)c1,-6.4%
C=CCn1c(CNC(=O)c2ccco2)nnc1SCC(=O)N1c2ccccc2Sc2ccccc21,-10.2%
SMILES,HPGD inh
COc1ccc(NC(=O)CSc2nccn2-c2ccccc2)cc1,-8.4%
O=C(Nc1ccc(N2CCCCC2)c(Cl)c1)c1ncn[nH]1,12.6µM*
COc1cc(OC)cc(C(=O)N2CCN(C(=O)c3cccc(F)c3)CC2)c1,5.0%
Cc1ccc(OCC(=O)N2CCN(S(=O)(=O)c3ccccc3)CC2)c([N+](=O)[O-])n1,-14.2%
COc1ccc2c(c1)C(=O)[C@H](OC(=O)N[C@H]1CCCc3ccccc31)[C@@H](c1ccc(OC)c(Br)c1)O2,-10.4%
CN=C1SC(CC(=O)Nc2cccc(Cl)c2Cl)C(=O)N1C (configuration not stated),-3.1%
O=C(C1CC1)N(Cc1ccco1)c1nc(-c2ccccc2)cs1,-25.4%
Cc1ccn2c(C(=O)CSc3ccc(Cl)cc3Cl)c(C)nc2c1,-8.3%
CCCCOC(=O)NCN1C(=O)C2C3C=CC(C3)C2C1=O (configuration not stated),-6.4%
CC1CN(Cc2nc3c(c(=O)n(C)c(=O)n3C)n2CCCO)CC(C)O1 (configuration not stated),-4.9%
Cc1ccc(SCC(=O)Nc2ncc(C)s2)cc1,-20.4%
O=C(Cc1cccs1)N(c1ccccc1)C1C=CS(=O)(=O)C1 (configuration not stated),-7.9%
NS(=O)(=O)c1ccc(NC(=O)COC(=O)CCNC(=O)NC23CC4CC(CC(C4)C2)C3)cc1,-1.2%
COc1cc(OC)cc(C(=O)N2CCN(C(=O)COc3ccc4ccccc4c3)CC2)c1,-16.6%
Cc1cccc(C)c1NC(=O)C1(NC(=O)c2cnccn2)CCCCC1,-1.6%
N#Cc1ccc(C23CC4(C2)[C@H](CN(Cc2ccc(C(F)(F)F)cc2)[C@@H]4c2ccccc2)C3c2ccc(C(F)(F)F)cc2)cc1 (some centres not stated),-3.5%
CCOC(=O)c1[nH]c2cc3c(cc2c1NC(=O)CN1CCc2ccccc2C1)OCO3,?
CCN(CC)C(=O)c1c(-c2ccccc2)oc2ccc(OC)cc12,?
COc1ccc(NC2=CC(c3ccccc3)N(c3ccc(OC)cc3)C2=O)cc1 (configuration not stated),-11.7%
COCCNC(=O)CN(c1ccc(C)cc1)S(=O)(=O)c1ccccc1,-4.5%
C=CC1=C2C=C(C3CC3)N(C3CC3)C=C2C(=O)C(C)(OC(=O)c2ccco2)C1=O (configuration not stated),-7.2%
COC(=O)c1ccccc1NC(=O)NCc1cccnc1,?
CC/C(C)=N/Nc1ccc(S(=O)(=O)N2CCCC2)cc1[N+](=O)[O-],-19.2%
O=C(Nc1nnc(C2CCCC2)s1)C1CCC1,-2.2%
Cc1c2cc(O)c(=O)cc-2oc2cc(O)c(O)cc12,?
SMILES,HPGD inh
Nc1cc(C(=O)O)[nH]c(=O)n1,-9.4%
Cc1ccc(NC(=O)CCC(=O)N/N=C/c2cc([N+](=O)[O-])ccc2O)cc1,-12.2%
Oc1ccccc1Cn1c(-c2ccccc2O)nc2ccccc21,?
Cc1noc(C)c1-c1nccc(-n2ccnc2)n1,-9.6%
c1ccc(Oc2cccc(CN3CCOCC3)c2)cc1,25.1µM*
N=C1SCC(=O)N1c1nc(-c2ccccc2)cs1,-14.0%
CNC(=O)CCSc1ccc(C)cc1,-4.5%
Nc1nonc1C(=O)NCCN=Cc1cc(Cc2ccccc2)cc(Br)c1O,15.8µM*
O=c1c(-c2cc(F)cc(F)c2)nc2cnc(N3CCOCC3)nc2n1C1CC1,?
Cc1ccc(NC(=S)N(CCN(C)C)Cc2cc3cccc(C)c3[nH]c2=O)cc1,-12.7%
C/C(=C\C1CCCCC1)C(NC(=O)c1ccc(C(F)(F)F)cc1)c1ccc(-c2ccccc2)cc1 (configuration not stated),-13.7%
CCOc1ccc(N(CCC#N)S(=O)(=O)c2ccc(OC)cc2)cc1,-3.8%
O=C(CN1CCN(c2ncc(C(F)(F)F)cc2Cl)CC1)NC(=O)NCc1ccccc1,3.5%
Cc1[nH]nc(-c2ccc(OCc3cnn(-c4ccccc4)c3)cc2O)c1Oc1ccccc1F,-16.2%
S=C(Nc1ccccc1)N1CCn2cccc2C1c1cccnc1 (configuration not stated),-16.5%
CC(=O)c1cccc(N(C(=O)c2cnccn2)C(C(=O)NCc2ccccc2)c2ccco2)c1 (configuration not stated),-4.0%
COc1ccc(C(=O)Nc2nc3cc(OC)c(OC)cc3c(=O)[nH]2)cc1,-1.5%
O=C(OCc1ccc(Cl)cc1)c1cnccn1,-7.0%
CCc1c(O)nc(SCC(=O)Nc2ccc3c(c2)CCC3)[nH]c1=O,-7.4%
CC(=O)N1C(=O)/C(=C2\SC(=S)N(c3c(C)n(C)n(-c4ccccc4)c3=O)C2=O)c2ccccc21,-4.3%
CCCCN(N=Nc1nonc1OC)c1nonc1OC,-20.1%
COc1ccc(CCNC(=O)/C=C\c2ccccc2)cc1OC,-14.7%
CCOc1ccccc1N(C(=O)CNS(=O)(=O)c1ccccc1)C(CC)C(=O)NCc1ccco1 (configuration not stated),-19.5%
O=C(c1cccnc1)N1CCCc2ccccc21,1.4%
COc1cc(/C=N/NC(=S)N/N=C/c2cc(OC)c(OC)c(OC)c2)cc(OC)c1OC,?

# 6 compounds from above, ordered by length of the SMILES, low to high.
SMILES,HPGD inh
Nc1cc(C(=O)O)[nH]c(=O)n1,-9.4%
Oc1ccccc1Cn1c(-c2ccccc2O)nc2ccccc21,?
Nc1nonc1C(=O)NCCN=Cc1cc(Cc2ccccc2)cc(Br)c1O,15.8µM*
COc1cc(/C=N/NC(=S)N/N=C/c2cc(OC)c(OC)c(OC)c2)cc(OC)c1OC,?
C/C(=C\C1CCCCC1)C(NC(=O)c1ccc(C(F)(F)F)cc1)c1ccc(-c2ccccc2)cc1 (configuration not stated),-13.7%
CC(=O)N1C(=O)/C(=C2\SC(=S)N(c3c(C)n(C)n(-c4ccccc4)c3=O)C2=O)c2ccccc21,-4.3%

# (more compounds)
SMILES,HPGD inh
CC(=O)c1cn(CC(=O)NCC2CCCO2)c2ccccc12 (configuration not stated),-1.5%
COc1cccc(Cn2cnc3c(NS(=O)(=O)c4cccc(Cl)c4Cl)c(C)c(C)cc32)c1,-15.1%
CCC(=O)NCCc1nc2ccccc2n1CC,-9.0%
O=C(CN1CCN(Cc2ccccc2)C1=O)NCc1cccs1,-4.7%
CCCC(=O)Nc1cccc(NC(=S)NC(=O)C(C)Oc2ccc(Cl)cc2Cl)c1 (configuration not stated),?
CSc1nnc(CSc2cc(C)nc(N(C)C)n2)o1,-14.3%
COc1ccc(CCNC(=O)C2(C)CCC(=O)N2CCC(C)C)cc1OC (configuration not stated),-9.1%
Cn1c(=O)c2c(nc(NCC(O)CO)n2CCc2ccccc2)n(C)c1=O (configuration not stated),-6.9%
CC(C(=O)Nc1ccccc1-c1ccccc1)N1CCOCC1 (configuration not stated),0.4%
Cc1cnc(C)c(N(C)NC(=S)Nc2ccccc2)n1,70.3%[activator]
O=c1c2ccccc2[nH]c(=S)n1C1CCCCC1,-13.2%
Cc1ccc(C(=O)N/C(=C/c2ccco2)C(=O)NCCc2c[nH]c3ccccc23)cc1,-11.3%
COc1ccc2c(c1)O[C@H](c1ccc3c(c1)OCO3)[C@@H](OC(=O)Nc1cc(OC)c(OC)c(OC)c1)C2=O,-5.2%&-18.4%
CCOC(=O)N1CCN(C(=O)CCc2ccc(S(=O)(=O)NCCc3ccccc3)cc2)CC1,-12.6%
C=CCSc1nc(-c2ccccc2)c2cc(Cl)ccc2n1,?
C/C(CCc1ccc2c(c1)OCO2)=N\N=C(/N)SC1CC(=O)N(c2ccc(Cl)cc2)C1=O (configuration not stated),-12.9%
CCc1ccc(CN(C)CCc2ccccn2)cc1,-4.3%
O=C(CNC(=O)c1ccc(Br)cc1)N/N=C/c1ccc[nH]1,-4.6%
Cc1cccc(-c2nsc(SCC(=O)c3ccc(Cl)cc3)n2)c1,-27.3%
Brc1ccc2[nH]ncc2c1,-8.9%
NC(=O)CSc1nc2ccccc2n1Cc1ccccc1,2.4%
CCOc1ccc(C(CCc2ccccc2)NC(=O)c2ccccc2OC)cc1OCC (configuration not stated),-27.2%
Cc1ccc(O)c(C2=Nc3ccccc3N=C(c3ccc([N+](=O)[O-])cc3)C2)c1,-14.1%
N#Cc1cccc(-n2nnnc2-c2ccc3c(c2)OCO3)c1,-9.7%
CCn1c(=NC(=O)c2ccc(S(=O)(=O)N3CCOCC3)cc2)sc2cccc(OC)c21,?
O=C1N=C(c2ccccc2)S/C1=C\c1cccs1,5.62µM*
COc1ccccc1N1C(=O)c2cccc3c(C(=O)O)ccc(c23)C1=O,-23.9%
CCOc1cc(C(=O)Nc2cc(C)ccc2OC)ccc1OCC(=O)N1CCCCC1,-10.7%
Cn1c(=O)c2c(nc(NC3CCCCC3)n2CC(O)COc2ccccc2)n(C)c1=O (configuration not stated),-6.8%

# Assay outcomes as filed in PubChem.

# An excerpt; count on the stated rates, not on these rows.
